RN4220 kill: kills Staphylococcus aureus RN4220 | S. aureus RN4220 growth, OD600, 16 h | inhibition, % (concentration not given with the values) | 0.33% of 330,000 active | AID 1259311;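 active = z-score of -3 or lower and OD600 up to 0.18 on both plates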;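 note: plate controls were untreated cells for no effect and reference antibiotic for full effect; stock transfer was 100 nL into about 80 µL; one replicate is shown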
BJeLR viability: kills HRASV12-expressing BJeLR cells | BJeLR (HRASV12) viability, CellTiter-Glo ATP luminescence, 48 h; reference of the scale not given here | inhibition, % (concentration not given with the values) | 0.17% of 300,000 active | AID 1554;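 active = replicate mean above 50%; inconclusive = above 50% but judged a plate artefact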;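 note: 50 nL library stock added to about 25 µL; numbers are from one replicate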
Mtb hypoxia rep: reduces hypoxia-regulated biosensor signal in M. tuberculosis; M. tuberculosis hypoxia-regulated fluorescent reporter, fluorescence; fluorescence inhibition, % (concentration not given with the values); 0.1% of 300,000 active;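 active = 35 to 45% if threefold the growth effect, above 45% if 1.5-fold the growth effect; inactive = the rest, general growth blockers included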;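 note: wells of about 50 µL received 100 nL stock; 0% = vehicle wells and 100% = reference inhibitor wells; whole bacteria with a GFP reporter of the hypoxia response; strong numbers were not always called active; many hits fall short of the cut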
ugtP null kill: kills S. aureus RN4220 lacking UgtP. 0.54% of 330,000 active. AID 1259309. growth inhibition, % (no concentration beside the values). S. aureus RN4220 ugtP deletion, OD600 growth, 16 h; some inactives read as strong as hits;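 active = z-score under -3 and OD600 up to 0.15 on both plates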;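 note: plate controls were untreated wells for no effect and antibiotic for full effect; wells of about 80 µL received 100 nL stock; the first replicate is given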
Bead autofluor: compound fluorescence in toxin protease inhibitor counterscreen; compound autofluorescence counterscreen, microsphere flow cytometry; stronger effect = higher value; fluorescence intensity (no concentration beside the values); 3.1% of 360,000 active; AID 624483;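 active = at least 3 SD above the mean of all compounds, about 16000 in these data; inconclusive = too few beads counted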;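 note: 100 nL of 1 mM stock went into each well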
PrP 5UTR inh: suppresses PrP 5' UTR mRNA reporter expression; cell-based PrP 5' UTR mRNA reporter, plate reader; inhibition, % (test concentration not listed); 0.35% of 340,000 active; AID 488862;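 active = every replicate at 50% or more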;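 note: 0 = median of the neutral control wells; tested in H4 reporter cells; numbers are from one replicate; inactives centre near -14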
Mtb hypoxia rep growth: also measured in Mtb hypoxia rep; calls as there; growth inhibition, %; measured here: M. tuberculosis growth (absorbance);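 0% = vehicle and 100% = reference antibiotic; read after six days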
* hit, by the source's call; ? = inconclusive; nt = no result given.

SMILES	RN4220 kill	BJeLR viability	Mtb hypoxia rep	Mtb hypoxia rep growth	ugtP null kill	Bead autofluor	PrP 5UTR inh
CCc1cc2c(N3CCN(C)CC3)ncnc2s1	-4.7	5.6	15.0	-1.3	2.0	nt	-7.0
COCCCN1C(=O)C2C(C(=O)Nc3cc(C)cc(C)c3)C3C=CC2(O3)C1C(=O)NC1CCCCC1 (configuration not stated)	-0.6	-5.1	5.7	-0.3	4.1	4215	-1.5
COc1cc(/C=N/NC(=O)c2nc3ccccn3c2C)cc(OC)c1O	nt	0.2	nt	nt	nt	3950	-8.4
O=C(Nc1ccc2c(c1)OCCO2)C1CCN(C(=O)c2ccc(Cl)cc2)CC1	5.1	-2.8	-5.7	-6.2	5.1	6601	-15.1
Cn1c(=O)n(C)c2cc(NS(=O)(=O)c3ccc(F)cc3)ccc21	3.5	10.1	3.0	-10.3	-1.3	4489	-20.4
Cc1cc(CNC(=O)c2ccc3nc(Cc4ccccc4F)oc3c2)nn1C	-1.3	-1.0	3.5	2.4	5.8	5148	-46.4
O=C(c1ccc(F)cc1)C1CCN(S(=O)(=O)c2ccccc2)CC1	5.1	0.2	-2.8	-3.1	-71.6	4358	-16.8
Oc1ccc(Nc2nc(NCC3CCCO3)c3ccccc3n2)cc1 (configuration not stated)	0.8	0.8	-3.9	6.5	-8.2	3412	2.0
CCCNC(=O)N(CCOC)CC1CCCN(C2Cc3ccccc3C2)C1 (configuration not stated)	0.2	-5.0	-2.3	2.0	2.9	3657	-26.5
Cc1cc(C(=O)COC(=O)c2ccc3c(c2)NC(=O)CS3)c(C)n1CCc1ccc(Cl)cc1	2.2	3.4	-1.2	-6.2	-0.3	3511	-34.3
O=C(CCSc1nnc2ccccn12)Nc1ccc(F)cc1	2.6	-0.7	-10.6	1.9	-2.1	23399*	-18.9
CC(C)(C)OC(=O)N1CCC[C@H]1c1nnc(SCC(=O)Nc2ccc(Br)cc2)o1	1.3	-9.4	1.2	-8.4	11.5	3424	-13.2
Cc1nc2ccc(NS(=O)(=O)c3ccc(F)cc3)cc2s1	4.9	-6.0	3.7	2.9	-6.6	4316	-21.1
COc1cccc(OCCCCSc2ncccn2)c1	-0.4	-5.8	17.2	16.4	1.0	2902	-22.9
Cc1c(S(=O)(=O)N2CCN(c3ccccc3)CC2)c(=O)n(C)c(=O)n1C	4.5	2.9	4.0	-9.8	-9.9	3605	-3.5
Cc1ccc(-n2sc3ccccc3c2=O)cc1	99.7*	1.3	11.3	7.5	99.5*	2111	-45.2
Cc1ccc(Nc2ccc(C(F)(F)F)cc2[N+](=O)[O-])cc1	-5.0	6.5	1.5	11.5	9.6	7139	-28.7
COCCN(C(=O)CSc1nc2ccc(Cl)cc2[nH]1)c1c(N)n(Cc2ccccc2)c(=O)[nH]c1=O	1.2	1.2	2.9	5.9	2.0	5139	-10.0
N#CCC(=O)Nc1cc(C(F)(F)F)ccc1N1CCOCC1	9.5	-10.9	3.9	2.9	2.8	4391	-20.6
Cn1c(=O)n(C)c2cc(CN3C(=O)OC(C)(C)C3(C)O)ccc21 (configuration not stated)	1.7	-7.9	-6.1	5.2	-16.1	4858	-21.6

11 entries from above, in CSV form:
structure,RN4220 kill,BJeLR viability,Mtb hypoxia rep,Mtb hypoxia rep growth,ugtP null kill,Bead autofluor,PrP 5UTR inh
Cc1cc(C(=O)COC(=O)c2ccc3c(c2)NC(=O)CS3)c(C)n1CCc1ccc(Cl)cc1,2.2,3.4,-1.2,-6.2,-0.3,3511,-34.3
O=C(CCSc1nnc2ccccn12)Nc1ccc(F)cc1,2.6,-0.7,-10.6,1.9,-2.1,23399*,-18.9
CC(C)(C)OC(=O)N1CCC[C@H]1c1nnc(SCC(=O)Nc2ccc(Br)cc2)o1,1.3,-9.4,1.2,-8.4,11.5,3424,-13.2
Cc1nc2ccc(NS(=O)(=O)c3ccc(F)cc3)cc2s1,4.9,-6.0,3.7,2.9,-6.6,4316,-21.1
COc1cccc(OCCCCSc2ncccn2)c1,-0.4,-5.8,17.2,16.4,1.0,2902,-22.9
Cc1c(S(=O)(=O)N2CCN(c3ccccc3)CC2)c(=O)n(C)c(=O)n1C,4.5,2.9,4.0,-9.8,-9.9,3605,-3.5
Cc1ccc(-n2sc3ccccc3c2=O)cc1,99.7*,1.3,11.3,7.5,99.5*,2111,-45.2
Cc1ccc(Nc2ccc(C(F)(F)F)cc2[N+](=O)[O-])cc1,-5.0,6.5,1.5,11.5,9.6,7139,-28.7
COCCN(C(=O)CSc1nc2ccc(Cl)cc2[nH]1)c1c(N)n(Cc2ccccc2)c(=O)[nH]c1=O,1.2,1.2,2.9,5.9,2.0,5139,-10.0
N#CCC(=O)Nc1cc(C(F)(F)F)ccc1N1CCOCC1,9.5,-10.9,3.9,2.9,2.8,4391,-20.6
Cn1c(=O)n(C)c2cc(CN3C(=O)OC(C)(C)C3(C)O)ccc21 (configuration not stated),1.7,-7.9,-6.1,5.2,-16.1,4858,-21.6

(continued)
SMILES	RN4220 kill	BJeLR viability	Mtb hypoxia rep	Mtb hypoxia rep growth	ugtP null kill	Bead autofluor	PrP 5UTR inh
Cc1onc(-c2ccc3c(c2)OCO3)c1-c1ccc2[nH]ccc2c1	-4.1	12.1	-1.6	4.9	3.7	3826	3.5
CC(C)(C)N1C(=O)C2C(c3ccc(Br)cc3)N3C(=O)N(c4cccc(Cl)c4)C(=O)[C@@]3(C)C2C1=O (some centres not stated)	4.2	nt	-2.8	4.5	5.2	nt	nt
CC(=O)N1CC(c2ccccc2)C(c2ccc(Cl)cc2)=N1 (configuration not stated)	0.8	0.9	16.5	3.3	30.1	1970	-5.0
O=S(=O)(Cc1ccc(Cl)cc1)N1CCN(Cc2ccccc2)CC1	4.4	nt	1.3	6.4	5.0	11054	-8.4
CCOc1ccc2sc(NS(=O)(=O)c3ccc(N)cc3)nc2c1	6.9	3.5	21.7	25.1	-0.7	3350	-14.4
CC(OC(=O)c1cccc(S(=O)(=O)N2CCCC2)c1)C(=O)NC1CCCCC1C (configuration not stated)	3.0	-3.8	9.4	8.3	1.5	?	1.5
CCc1ccc(-n2c(C)n[nH]c2=S)cc1	7.3	5.4	7.0	2.9	4.9	3249	-8.8
CCc1nnc(NC(=O)CSCc2cc(=O)n3nc(C(C)C)sc3n2)s1	3.3	7.8	-6.3	0.1	1.2	5015	-22.0
CCc1ccc(C(=O)COC(=O)c2ccccc2OC)cc1	0.2	5.0	9.7	2.4	-1.3	5199	-69.2
CCCC(=O)OCCNc1cc(SCc2ccco2)c2nonc2c1[N+](=O)[O-]	11.3	1.1	nt	nt	-15.7	1888	-8.6
O=C(NCc1ccco1)C1CCCN(S(=O)(=O)c2cnc[nH]2)C1 (configuration not stated)	-0.7	2.2	nt	nt	4.3	5597	-43.1
Cc1ccccc1Nc1nc(N)nc(COC(=O)CCS(=O)(=O)c2ccccc2)n1	9.6	1.2	-4.8	9.2	-12.2	24248*	-4.6
N#CNC(=Nc1cccc(F)c1)SCc1ccccc1F	5.2	5.1	0.0	1.5	12.5	2023	-4.7
CC12CN3CCN(CC(C3)/C1=N\N=C1/C3CN4CCN(C3)CC1(C)C4)C2	nt	0.4	nt	nt	nt	2714	-7.7
CCOC(=O)Cc1csc(NC(=O)CSc2nnnn2-c2ccc(C)c(C)c2)n1	0.8	-7.5	nt	nt	0.7	3441	0.3
COc1ccc(-c2ccc3c(=O)cc(-c4ccsc4)oc3c2)cn1	9.3	nt	12.5	4.9	5.9	3346	-24.5
CCCCCCC1C(C#N)=C(N)OC2=C1C(=O)CC(C)(C)C2 (configuration not stated)	8.4	-4.6	-4.9	3.3	-3.5	5129	-15.7
Cc1ccc(/C=N/NC(=O)c2ccc3c(c2)OCCO3)s1	nt	47.7	nt	nt	nt	4043	-102.3
COc1ccc([N+](=O)[O-])cc1NCC(=O)c1ccc(C)cc1	2.7	9.4	-3.5	2.3	1.8	3847	-26.3
COc1ccc(N(C(=O)c2ccccc2OC)C2C=CS(=O)(=O)C2)c(OC)c1 (configuration not stated)	3.1	1.9	-4.4	-0.6	1.6	10717	1.7
CCn1nnnc1SCC(=O)c1cccc(OC)c1	6.9	-8.7	-0.6	8.6	2.2	3825	-10.9
Cc1cc(C(=O)N2CCc3ccccc32)c2ccccc2n1	1.8	0.4	2.1	-5.6	-2.9	9021	-13.7
O=C(NC1CCSC1=O)c1cccc(Cl)c1 (configuration not stated)	1.6	1.8	8.0	-4.4	-1.1	4386	-27.9
CC(C)(C)NC(=O)NC(=O)COC(=O)CNS(=O)(=O)c1ccc(Br)cc1Cl	2.0	2.3	6.8	7.9	3.4	4231	-10.8
CCCn1c(=O)[nH]c(=O)c2c1nc(-c1ccc3c(c1)OCCO3)n2CCN1CCOCC1	0.2	11.2	4.8	0.2	2.6	3244	-6.8
CC(=O)c1ccc(OCC(=O)Nc2ccccc2N2CCCC2)cc1	1.6	-2.5	5.8	-0.6	-0.4	5911	-10.4
Fc1ccccc1COc1ccccc1/C=N/Nc1nc(N2CCCC2)nc(N2CCCC2)n1	nt	2.8	nt	nt	nt	8456	-29.2
COc1ccc(NC(=O)CCNC(=O)c2ccco2)cc1OC	-2.3	0.5	-6.4	3.6	2.3	3605	-11.3
C=CCN(C(=O)Cn1ncc2c1-c1cc(C)ccc1OC2)c1ccccc1	2.6	3.8	nt	nt	7.9	5352	-6.5
CC(=O)c1cccc(NC(=S)N2CCN(c3ccccn3)CC2)c1	-1.4	2.9	6.9	5.9	3.5	6791	-3.6
O=C1c2ccccc2C(=O)C1c1ccncc1	2.1	-1.5	nt	nt	1.0	4658	-4.3
CCC1(CC)NC(=S)N(Nc2ccccc2)C1=O	5.7	-3.6	7.4	10.7	9.6	12858	-25.3
Cc1cc(Cl)ccc1NC(=S)NCc1ccccc1	-5.7	-1.6	nt	nt	14.8	2342	-29.6
COc1ccc(CCNC(=O)c2ccc3c(=O)n(Cc4ccco4)c(=S)[nH]c3c2)cc1OC	-3.9	6.8	nt	nt	6.9	3739	-20.0
COc1ccc(N2CCN(c3oc(COc4ccc(Cl)cc4)nc3C#N)CC2)cc1	7.5	4.2	17.3	14.6	-5.9	2423	-26.3
CN(C)S(=O)(=O)Nc1ccccc1F	6.7	3.1	2.3	2.0	17.5	3364	-16.2
O=C(Nc1ccccc1)c1cccc(-c2nnc(-c3ccccc3)o2)c1	1.2	0.9	11.8	7.0	2.8	2459	-14.2
Cc1ccc(C(=O)NC(O)C(Cl)Cl)cc1 (configuration not stated)	-3.1	-1.7	6.5	3.5	0.1	2466	-25.1
OCC[C@@H]1C[C@@H](O)[C@H](O)[C@@]2(CCCc3ccccc3O2)O1	-9.5	-2.7	6.1	2.8	1.0	3704	-17.1
Fc1ccccc1N1CCN(C(c2ccccn2)c2nnnn2C2CCCCC2)CC1 (configuration not stated)	4.6	3.4	2.6	7.0	-0.2	8186	-49.5
CCOC(=O)C1CCN(Cc2cc(=O)oc3cc(C)c(Cl)cc23)CC1	6.5	1.7	-5.8	-2.5	14.5	3437	-10.6
O=C(NN=Cc1cc(Br)cs1)c1ccc2c(c1)OCCO2	0.4	nt	3.2	-4.0	1.9	nt	nt
CC(C)(C)c1ccc(-c2n[nH]c(=S)n2C2CCCC2)cc1	1.6	9.0	-5.3	-5.3	3.8	22762*	-9.7
COC(=O)C(C)N(C(=O)c1cccc(Cl)c1)c1c(C)cccc1C (configuration not stated)	5.8	12.9	8.5	1.0	4.0	10041	nt
C#CC1(NC(=O)N(C)C)CCCCC1	3.0	-1.2	20.1	16.1	5.7	2098	-18.2
C/C(=C\C(=O)c1ccc(Br)cc1)NCc1ccccc1	-1.8	1.4	nt	nt	76.8	3285	-37.1
CC1(C)Cc2c(cnn2-c2cccc(F)c2)C(NC(=O)CSc2ccncc2)C1 (configuration not stated)	-1.0	-8.9	4.1	-1.9	5.7	5064	-8.6
CCC(C)(C)n1nnnc1C(c1ccc(F)cc1)N1CCC(C(N)=O)CC1 (configuration not stated)	1.9	-7.6	0.1	9.4	1.4	4031	-7.4

Screens from PubChem BioAssay.

The order is random. About 3.9% of those tested had a hit in this group.
